# YopH PTP inh: inhibitors of Yersinia enterocolitica YopH tyrosine phosphatase; 140,000 compounds, 0.16% hits; fluorescence Ex485/Em525; AID 898; inhibition, %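 (about 10 µM by stock and volumes)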;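 active = inhibition of 50% or more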;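 also: controls were vehicle for no effect and minimum signal wells for full effect; inactives centre near -20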
# RecA splice inh: Mtb RecA intein splicing inhibition; 290,000 compounds, 0.75% hits; cell-free RecA intein splicing, fluorescence; P9WHJ3; inhibition, %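 (about 9 µM by stock and volumes)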; in the data active = inhibition above about 30%; inconclusive = no clear call, values can overlap the other calls;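 also: 0% = vehicle wells and 100% = reference inhibitor control wells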
# Target sequence (P9WHJ3 whole entry, looked up, canonical isoform): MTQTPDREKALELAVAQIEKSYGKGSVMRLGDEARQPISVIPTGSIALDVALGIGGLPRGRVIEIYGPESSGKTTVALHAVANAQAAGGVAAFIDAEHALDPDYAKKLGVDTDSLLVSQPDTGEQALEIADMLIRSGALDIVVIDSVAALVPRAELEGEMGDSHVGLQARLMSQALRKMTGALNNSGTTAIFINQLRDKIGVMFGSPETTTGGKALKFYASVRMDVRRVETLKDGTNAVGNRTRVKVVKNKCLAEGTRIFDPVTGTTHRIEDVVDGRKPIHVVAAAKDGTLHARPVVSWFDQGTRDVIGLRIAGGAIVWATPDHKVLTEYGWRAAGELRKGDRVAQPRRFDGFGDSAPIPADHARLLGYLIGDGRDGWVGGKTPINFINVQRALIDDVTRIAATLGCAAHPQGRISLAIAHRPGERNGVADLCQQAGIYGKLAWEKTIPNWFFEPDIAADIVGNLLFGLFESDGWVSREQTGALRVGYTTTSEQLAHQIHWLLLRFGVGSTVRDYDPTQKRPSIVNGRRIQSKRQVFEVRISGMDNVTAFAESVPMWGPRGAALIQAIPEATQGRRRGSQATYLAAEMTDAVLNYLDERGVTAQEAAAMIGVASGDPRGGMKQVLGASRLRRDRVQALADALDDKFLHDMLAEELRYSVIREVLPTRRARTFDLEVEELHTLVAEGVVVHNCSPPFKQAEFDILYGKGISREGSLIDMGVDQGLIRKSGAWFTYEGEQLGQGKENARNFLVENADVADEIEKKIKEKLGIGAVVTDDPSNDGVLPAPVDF
# Mtb H37Rv: M. tuberculosis H37Rv growth inhibitors, H37Rv strain (AID 1626); M. tuberculosis H37Rv growth inhibition; higher % means a stronger effect; 220,000 compounds, 0.95% hits; one-dose inhibition, % at 10 µM; IC50 in µM for titrated hits;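 active = confirmed in a dose series; inconclusive = inhibition above 80% but not taken into the dose series; inactive = below 80% or under 30% at every dose of the series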;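 also: bacteria incubated seven days before Alamar blue readout; 0% = bacteria only wells and 100% = bacteria with antibiotic wells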
# Arbovirus inh: antivirals against arbovirus infection. arbovirus infection cell-based antiviral screen. inhibition, % at 10 µM. 200,000 compounds, 0.37% hits. AID 1251;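 active = inhibition from about 30%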;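 also: bluetongue infection of BSR cells; cell survival read as ATP light after 72 h; 0% = infected wells without compound and 100% = uninfected wells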
# Mtb bLac sens: beta-lactam sensitization of Mtb H37Rv. M. tuberculosis H37Rv growth with meropenem, percent inhibition; hits of this screen are not shown here. 330,000 compounds, 0.27% hits. inhibition, % at 25 µM;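 active = about 74% or more and at least 40 points above the plate without the antibiotic, then above 30% in a dose series; inconclusive = first-round hits that could not be retested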;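 also: growth measured after seven days incubation then overnight dye step; 0% = bacteria only wells and 100% = bacteria with antibiotic; twin plates without the antibiotic show which effects depend on it; some results filed as inactive read as strong as hits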
# Arbovirus inh repeat: second read-out of Arbovirus inh, no call of its own (marks repeat the call); inhibition, %; measured here: 10K subset replicate screen; many hits read low in the repeat;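 first of two repeat runs on a subset; 0% = infected and 100% = uninfected wells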
# Numbers without * were called inactive; ? = inconclusive; · = not tested or not shown; & = joins results of further samples. A portion of the library (hit frequency here may not be typical).
SMILES,YopH PTP inh,RecA splice inh,Mtb H37Rv,Arbovirus inh,Mtb bLac sens,others
CCOc1ccccc1CN1CCNC(=O)C1CC(=O)NC1CCCCCCC1 (centres undefined),·,0.7,·,·,-7,
Cc1ccc(SCc2[nH]nc3c2C2(C(=O)Nc4ccc(F)cc42)C(C#N)=C(N)O3)cc1 (centres undefined),-21,·,-5%,8,6,
O=C(Oc1ccc(Cl)c2cccnc12)c1ccco1,-16,-3.1,?,0,100,
CCCCOC(=O)c1ccc(S(N)(=O)=O)o1,-23,-3.8,-3%,6,-5,
CCC(C)C(NC(=O)C1CCC(C)CC1)C(=O)NCc1ccco1 (centres undefined),·,-0.1,·,·,1,
CC(NC(=O)CN1CCOCC1)c1ccccc1 (centres undefined),·,-2.0,·,·,0,
Cc1cc(=O)n(-c2ccccc2)n1-c1ccccc1,-12,1.2,-1%,1,-12,
Cc1ccc(OS(=O)(=O)c2cn(C)c(=O)n(C)c2=O)cc1C,·,-1.6,23%,2,-2,
COc1cc(SC)ccc1C(=O)N1CCc2ccccc21,·,-2.7,·,·,-5,
CCN1C(=O)c2ccccc2Sc2ccc(C(=O)NCCCN(CC(C)C)CC(C)C)cc21,·,11,·,·,-3,
O=C(Cc1coc2cc3c(cc12)CCC3)NC1CCCCCCC1,-14,0.5,15%,9,2,
CCSc1nnc(NC(=O)c2ccccc2)s1,-22,-2.5,0%,8&23,-6,Arbovirus inh repeat=13
Cc1nnc(SCC(=O)Nc2nccs2)n1N,·,-1.8,·,·,-12,
COc1ccc(S(=O)(=O)N2CCOC23CCN(S(=O)(=O)c2ccc([N+](=O)[O-])cc2)CC3)cc1,·,-2.5,·,·,-7,
O=C(C[n+]1cc(-c2ccc(Cl)cc2)n2c1CCCCC2)c1ccccc1,·,0.4,-5%,·,4,
CC(=O)Nc1cccc(NC(=S)Nc2ccc(F)c(Cl)c2)c1,·,2.0,20%,1,48,
N#Cc1ccc(CN2CCN(CC(=O)NCCc3ccc(Cl)cc3Cl)CC2)cc1,·,5.0,·,·,71,
CC1=[N+]([O-])C2(N)CCc3nonc3C2(O)C1 (centres undefined),-23,-2.4,-2%,0,-6,
COc1cccc(N2CCN(C(=O)CCS(=O)(=O)c3ccc4c(c3)oc(=O)n4C)CC2)c1,·,-2.0,·,·,-3,
COc1ccccc1C(=O)OCCCN=C1NS(=O)(=O)c2ccccc21,·,-1.9,-5%,3,3,
Cc1cc(C)cc(NC(=O)CSc2cc(C(=O)c3nccn3C)c3ccccc3n2)c1,-31,-1.1,3%,-15,5,
CCOP(=O)(OCC)C(NC(=O)c1ccc(C)cc1)C(Cl)(Cl)Cl (centres undefined),0,3.4,-4%,-2,-6,
O=C(COC(=O)c1ccc(-c2ccc([N+](=O)[O-])cc2)o1)NC(=O)NC12CC3CC(CC(C3)C1)C2,-29,5.7,10µM*,11,99,
O=[N+]([O-])c1ccccc1/C=N/N1CCN(c2ccccn2)CC1,-27,3.0,-10%,-1,-3,
O=c1[nH]c2ccccc2cc1-c1nnn(-c2ccccc2)n1,·,-3.0,-2%,·,0,
CCN(CC(=O)NC(C)C)C(=O)[C@@H](NC(=O)c1ccco1)C(C)C,·,1.7,-13%,13,-4,
Clc1cccc(Cl)c1CSc1nnc(/C=C/c2ccccc2)o1,-17,4.0,·,8,-3,
Cc1ccc(/C=C/C(=O)Nc2ccncc2)o1,-14,1.9,-2%,2,-3,
O=C(CNC(=O)c1ccc2ccccc2c1)NCc1ccccc1F,·,0.8,·,·,5,
COCCCn1c(SCC(=O)Nc2ccc(C(C)=O)cc2)nc2ccccc2c1=O,-2,1.0,0%,4,10,
O=c1[nH]c(=O)n(C2CCCCCC2)c(O)c1C=NCc1ccc(F)cc1,-32,4.3,-4%,4,2,
CCO/C=N/c1c(C#N)c(CC#N)nn1-c1ccccc1,-14,0.0,-7%,1,7,Arbovirus inh repeat=3
Cc1ccc(NC(=O)CCNC(=O)c2ccc(Cl)cc2)cc1C,·,-1.6,·,·,72,
COc1ccccc1CNC(=O)CCCc1ccccc1,-1,2.9,0%,-2,-1,
CCCCC(=O)Nc1cc(NC(=O)CC)ccc1Cl,-4,2.5,-3%,7,-11,
CC1=C(C(=O)Nc2ccccc2)C(c2cccs2)NC(=O)N1 (centres undefined),·,2.7,-2%,3,0,
Cc1cc(C)n(S(=O)(=O)c2ccc(F)cc2)n1,·,0.7,·,·,1,
CN(C)S(=O)(=O)c1ccc(Cl)c(NC(=O)COC(=O)CNC(=O)c2ccco2)c1,·,-0.8,1%,8,-1,
COc1ccc2oc(=N)c(C(=O)Nc3ccc(Cl)cc3)cc2c1,·,-0.4,·,·,5,
COC(=O)c1ccc(-c2sc3nc(N4CCOCC4)c4c(c3c2N)CCCC4)o1,-2,-110,6%,1,6,
CCOc1cc(N2CCOCC2)c(OCC)cc1NC1=NCCCCC1,-11,0.6,4%,-4,-6,
Cc1c(C(=O)OCc2ccccc2)nnn1-c1nonc1N,14,-1.3,2%,5,-5,
O=C1Nc2ccc(Cl)cc2C12OCCCO2,·,0.0,·,·,-6,
O=C(CSc1ccc(-c2ccncc2)nn1)N1CCN(c2ccccc2)CC1,·,0.0,3%,-1,-7,
CCOc1ccc(NC(=O)C(Cc2ccccc2)NC(=O)C2CCCCC2)cc1 (centres undefined),-20,2.3,-3%,-10,6,
CS(=O)(=O)N(CC(=O)N1CCc2ccccc2C1)Cc1ccccc1,-1,2.9,-9%,5,9,
CCNC(=O)NC(=O)CSc1ccc(NC(C)=O)cc1,2,0.9,5%,-3,-5,
O=[N+]([O-])c1ccc(/C=N/Nc2nc3ccccc3o2)cc1,·,-0.9,·,·,-4,
COc1cccc(NC(=O)Cn2c(=O)n(CCCC(=O)NCc3ccco3)c(=O)c3ccccc32)c1,-27,5.8,3%,-10,·,
O=C(COC(=O)c1ccccc1)Nc1cccc(S(=O)(=O)NC2=NCCCCC2)c1,-3,1.0,-5%,6,-1,
C=CCn1c(O)c(N=O)c2ccccc21,·,-3.3,1%,·,-6,
Cc1ccc(OCCC(=O)N2CCN(c3ccc(O)cc3)CC2)cc1,·,-5.0,-6%,·,-2,
C=CCn1c(=O)c2ccc(C(=O)NCc3ccccc3)cc2n(Cc2cccc(Cl)c2)c1=O,-36,0.0,·,-11,4,
CCN(CC)CCN(Cc1cc2cc3c(cc2[nH]c1=O)OCCO3)C(=S)NCCCN(C)C,·,-2.5,·,·,-2,
C=CCNC(=S)NCC,·,-6.8,-13%,·,2,
CCOc1cc(C2C(C(=O)c3ccco3)=C(O)C(=O)N2Cc2ccccc2)ccc1O (centres undefined),·,-2.4,·,·,-5,
CCOc1ccc(Oc2ccc(Cl)cc2N)cc1,·,3.7,10%,9,1,
COC(=O)C1=C(N)Oc2cc(C)n(Cc3ccccc3)c(=O)c2C1c1ccccc1 (centres undefined),4,-7.3,5%,4,0,
O=C1CC(c2cccs2)Sc2nc3ccccc3n21 (centres undefined),-28,-0.1,-7%,0,-2,
COc1ccc(N2CCN(c3nc4ccccc4nc3NS(=O)(=O)c3ccccc3)CC2)cc1,-17,0.9,-2%,20,1,

# Going on with the list.
SMILES,YopH PTP inh,RecA splice inh,Mtb H37Rv,Arbovirus inh,Mtb bLac sens,others
O=C(c1ccc(-n2ccnc2)cc1)N1CCCC(CO)(Cc2cccc(Cl)c2)C1 (centres undefined),·,0.6,·,·,-1,
O=C(Cn1cncn1)NCc1cc(F)ccc1F,·,-2.0,-3%,6,-3,
Cc1cc(C)c(S(=O)(=O)N(C2=NCCS2)S(=O)(=O)c2c(C)cc(C)cc2C)c(C)c1,-17,1.5,-7%,-1,-3,
O=[N+]([O-])c1ccccc1OCCCNCc1ccccc1,·,0.4,5%,0,2,
CS(=O)(=O)c1sc2nc(-c3ccccc3)cc(-c3ccccc3)c2c1N,9,-3.5,-6%,3,-7,
CC(=O)N1CCC2(CC1)C(C#N)=C(N)Oc1n[nH]c(CSc3ccc(C)cc3)c12,-14,74*,-14%,1,-7,
CCC(=O)N1CCc2cc(S(=O)(=O)CCC(=O)Nc3ccc(C)c(F)c3)ccc21,-13,·,0%,-3,-5,
N#Cc1c(-c2cccc(Br)c2)cc(-c2cccnc2)nc1N,-17,-4.9,7%,-13,5,
O=[N+]([O-])c1c(C(Cl)Cl)nn(-c2ccccc2)c1N1CCOCC1,·,7.5,0%,0,25,
CC(C)CC(=O)NC(C)C(c1cccs1)N1CCOCC1 (centres undefined),·,0.0,-6%,·,-8,
N#Cc1c(/N=C/c2ccco2)sc2c1CCC2,4,-2.4,-2%,0,-7,
CN(C)c1nc2c(c(=O)[nH]c(=O)n2C)n1CCOc1ccccc1,·,-1.8,·,·,-1,
O=C(Cc1cccs1)Nc1nnc(CCc2ccccc2)s1,-35,0.9,4%,6,5,
COc1cc2c(cc1OC)CN(C(=O)c1cc(S(=O)(=O)N3CCCCC3)ccc1Cl)CC2,·,4.1,·,·,-11,
Cc1ccc(N2C(=O)c3cccc(Oc4ccc(Cl)cc4)c3C2=O)c(C)c1,-14,1.5,15%,8,2,
O=c1nc(/C=C/c2ccc(-c3ccc(F)cc3)o2)cc(C(F)(F)F)[nH]1,-37,-0.4,10µM*,28,98,
O=C(Cn1nnc(-c2ccccc2)n1)N1CCN(c2ccc(F)cc2)CC1,·,-3.0,-10%,18,-1,
COc1ccc(OC)c(NC(=O)NNC(=O)COc2ccc([N+](=O)[O-])cc2)c1,·,-1.6,·,·,-7,
O=C(CSc1ncc(-c2ccc(F)cc2)[nH]1)Nc1cccc(O)c1,-50,3.4,-4%,3,9,
Cc1cc2oc(C(=O)N(Cc3ccccc3)C3CCS(=O)(=O)C3)c(C)c2cc1C (centres undefined),·,-1.5,·,·,25,
COc1ccccc1N1CCN(S(=O)(=O)c2ccc(Cl)s2)CC1,28,9.5,2%,5,-3,
CCOC(=O)c1sc(NC(NC(=O)c2ccco2)(C(=O)OC)C(F)(F)F)nc1C (centres undefined),-43,1.0,7%,16,0,
CCOC(=O)CC1ON(C)C(=O)N1c1ccc([N+](=O)[O-])cc1 (centres undefined),0,-0.6,7%,10,8,
Cn1ccnc1SCc1cc(=O)[nH]c2ccccc12,9,1.1,16%,5,-1,

# 15 structures out of the list, ordered by formula weight, highest first:
SMILES,YopH PTP inh,RecA splice inh,Mtb H37Rv,Arbovirus inh,Mtb bLac sens,others
COc1cc2c(cc1OC)CN(C(=O)c1cc(S(=O)(=O)N3CCCCC3)ccc1Cl)CC2,·,4.1,·,·,-11,
CCOC(=O)c1sc(NC(NC(=O)c2ccco2)(C(=O)OC)C(F)(F)F)nc1C (centres undefined),-43,1.0,7%,16,0,
CCC(=O)N1CCc2cc(S(=O)(=O)CCC(=O)Nc3ccc(C)c(F)c3)ccc21,-13,·,0%,-3,-5,
Cc1cc2oc(C(=O)N(Cc3ccccc3)C3CCS(=O)(=O)C3)c(C)c2cc1C (centres undefined),·,-1.5,·,·,25,
COc1ccc(OC)c(NC(=O)NNC(=O)COc2ccc([N+](=O)[O-])cc2)c1,·,-1.6,·,·,-7,
Cc1ccc(N2C(=O)c3cccc(Oc4ccc(Cl)cc4)c3C2=O)c(C)c1,-14,1.5,15%,8,2,
COc1ccccc1N1CCN(S(=O)(=O)c2ccc(Cl)s2)CC1,28,9.5,2%,5,-3,
O=C(Cn1nnc(-c2ccccc2)n1)N1CCN(c2ccc(F)cc2)CC1,·,-3.0,-10%,18,-1,
N#Cc1c(-c2cccc(Br)c2)cc(-c2cccnc2)nc1N,-17,-4.9,7%,-13,5,
O=C(CSc1ncc(-c2ccc(F)cc2)[nH]1)Nc1cccc(O)c1,-50,3.4,-4%,3,9,
CN(C)c1nc2c(c(=O)[nH]c(=O)n2C)n1CCOc1ccccc1,·,-1.8,·,·,-1,
CC(C)CC(=O)NC(C)C(c1cccs1)N1CCOCC1 (centres undefined),·,0.0,-6%,·,-8,
CCOC(=O)CC1ON(C)C(=O)N1c1ccc([N+](=O)[O-])cc1 (centres undefined),0,-0.6,7%,10,8,
Cn1ccnc1SCc1cc(=O)[nH]c2ccccc12,9,1.1,16%,5,-1,
N#Cc1c(/N=C/c2ccco2)sc2c1CCC2,4,-2.4,-2%,0,-7,

# (next part)
SMILES,YopH PTP inh,RecA splice inh,Mtb H37Rv,Arbovirus inh,Mtb bLac sens,others
OC1(c2cccnc2)CCN(Cc2nnnn2Cc2ccccc2)CC1,·,2.4,·,6,-3,
N#Cc1c2ccc(OCC(=O)NCc3ccco3)cc2n2ccccc12,·,-40,·,·,0,
O=C(CN1CCN(S(=O)(=O)c2ccccc2F)CC1)NC1CCCC1,·,0.4,-6%,1,-6,
CCCCc1ccc(NC(=O)C2CCCC2)cc1,·,4.9,·,·,95,
CCOC(=O)c1cc2c(ccn2C)n1CC(=O)N1CCC(C)CC1,13,0.3,-8%,1,92,

# Screening results as filed in PubChem BioAssay.
